Screens from PubChem.
AF4-AF9 inh: inhibitors of AF4 peptide binding to AF9, primary screen, biochemical, AlphaScreen, biotin-AF4 peptide, FLAG-AF9, single point. inhibition, % at 10 µM. 350,000 tested, 0.47% active;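 active = every replicate reaching a set inhibition limit, whatever the replicate mean, cut at about 25% in these data; inconclusive = mean inhibition reaches that limit but some replicates miss it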;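 also: 0% = plate neutral control median and 100% = total signal loss; the record names both 10 and 1 µM as test concentration; the first replicate is given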
Target sequence (P42568 whole entry, looked up): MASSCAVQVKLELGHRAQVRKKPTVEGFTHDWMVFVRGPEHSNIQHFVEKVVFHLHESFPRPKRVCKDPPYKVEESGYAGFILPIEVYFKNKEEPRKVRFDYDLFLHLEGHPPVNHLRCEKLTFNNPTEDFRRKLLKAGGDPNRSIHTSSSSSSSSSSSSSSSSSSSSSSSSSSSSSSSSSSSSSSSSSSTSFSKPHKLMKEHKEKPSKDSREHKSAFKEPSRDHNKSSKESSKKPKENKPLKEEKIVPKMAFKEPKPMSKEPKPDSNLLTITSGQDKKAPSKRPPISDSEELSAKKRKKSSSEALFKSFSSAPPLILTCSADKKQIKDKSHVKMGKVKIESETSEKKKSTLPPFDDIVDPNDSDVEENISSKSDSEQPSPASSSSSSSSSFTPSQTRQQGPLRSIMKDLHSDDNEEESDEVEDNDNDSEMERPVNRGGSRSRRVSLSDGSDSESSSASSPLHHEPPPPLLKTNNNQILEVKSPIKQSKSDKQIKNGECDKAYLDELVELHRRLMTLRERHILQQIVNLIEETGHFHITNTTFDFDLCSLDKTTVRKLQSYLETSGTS
Vif A3G: inhibitors of Vif binding to APOBEC3G peptide, primary screen, biochemical, TR-FRET, GST-Vif 1-94, biotin-A3G peptide, dose response retest (AID 1117319); Virion infectivity factor (Human immunodeficiency virus type 1 group M subtype B (isolate …; TR-FRET GST-Vif / biotin-A3G peptide binding; higher % means a stronger effect; test concentration not given here; strong numbers were not always called active; inhibition, %, or IC50 in µM where a hit was titrated; 260,000 tested, 0.57% active;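 active = above the screen mean plus three standard deviations and confirmed in dose response; inconclusive = results disagree or hit not tested in dose response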;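 also: Vif residues 1-94 fused to GST binding biotinylated APOBEC3G peptide 110-148; 0% = full assay without inhibitor and 100% = GST in place of GST-Vif; retest series ran down from 100 µM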
Ecoli rRNA inh: reduced GFP signal of wild-type E. coli, primary screen, bacterial rRNA inhibitor project, GFP/RFP fluorescence, OD600, single point | E. coli WT GFP vs humanized-ribosome RFP mutants, 24 h; hits give low values; DMSO median 0, no signal -100 | GFP signal change (wild-type ribosome), % (no concentration beside the values) | 350,000 tested, 1.6% active | AID 720706, 2013;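 active = significant combined selectivity score with lowered wild-type GFP, culture density cut under 30%, mutant RFP and density less affected; inactive = any of these conditions unmet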; also: one replicate is shown; some compounds called inactive have numbers as strong as hits
Beta cell apopt: inhibitors of cytokine-induced beta cell apoptosis, primary screen, luminescence; INS-1E cytokine-induced death, ATP luminescence, 48 h; percent of positive-control rescue, neutral wells zero; protection from apoptosis, % (concentration not given with the values); 300,000 tested, 0.8% active; AID 435005, 2010;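 active = all replicates at 75% or more, or half of them and the mean; inconclusive = half reach 75% but not the mean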;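 also: 0% = cytokine-treated negative control wells and 100% = positive control rescue; higher means more ATP so stronger rescue from cytokine killing; wells of about 40 µL received 100 nL stock; the first replicate is given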
RanGTP-Imp inh: inhibitors of RanGTP-importin-beta interaction, primary screen, biochemical, FRET, CFP-Ran, YFP-importin-beta, homogeneous; cell-free CFP-Ran/YFP-importin-beta FRET ratio; inhibition, % (test concentration not listed); 300,000 tested, 1.1% active; AID 2216, 2009;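 active = most replicates above 15%; inconclusive = exactly half above 15%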;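 also: 0% = DMSO wells and 100% = Ran loaded with GDP instead of GTP; wells of about 40 µL received 100 nL stock; the first replicate is given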
Calb FLC: C. albicans growth inhibition with fluconazole, primary screen, CaCi-2 strain, Alamar Blue fluorescence. growth inhibition, % (concentration not given with the values). 300,000 tested, 0.57% active. C. albicans CaCi-2 (fluconazole-resistant clinical isolate) + fluconazole, 48 h;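 active = most replicates above 75%; inconclusive = exactly half above 75%; inactive = most below 75%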;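 also: all wells also contain fluconazole at 8 µg/ml as a sub-toxic cotreatment; 0% = median of DMSO wells and 100% = median of geldanamycin control wells; wells of about 8 µL received 7.5 nL stock; the first replicate is given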
A1 inh: caspase 3/7 activation in MEF A1-2A-BIM cells, primary screen, A1 inhibitor project, cell-based, luminescence, HTS | Caspase-Glo 3/7 luminescence, 3 h; percent of clofoctol response, vehicle zero | AID 2462, 2010 | 330,000 tested, 0.066% active | caspase activation, % (concentration not given with the values);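 active = over half of replicate activation scores above 10%, or exactly half above 10 with the replicate mean above 10; inconclusive = replicate mean below 10 yet half the replicates above 10; inactive = over half of replicates below 10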;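 also: wells of about 30 µL received 50 nL stock; many hits fall short of the cut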
T cruzi inh: inhibitors of intracellular T. cruzi growth, primary screen, luminescence, NIH3T3 host cells | T. cruzi beta-gal in NIH3T3, 90 h | inhibition, % (concentration not given with the values) | 300,000 tested, 1.4% active;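 active = mean inhibition across valid replicates above about 55%, limit read from the data; inconclusive = mean below that limit but half or more replicates reach it; inactive = mean below it, under half of replicates reach it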;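 also: signal also drops with host cell toxicity which is not excluded here; 0% = plate median of DMSO wells and 100% = zero luminescence signal; higher percent means less beta-gal luminescence so fewer parasites; stock transfer was 50 nL into about 50 µL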
Ecoli rRNA inh OD600: further read-out of Ecoli rRNA inh, marked with its call; OD600 change, %; measured here: OD600 growth;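 optical density of the mix in the first replicate; 0 = DMSO median and -100 = no signal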
Ecoli rRNA inh RFP: further read-out of Ecoli rRNA inh, marked with its call; RFP signal change, %; measured here: RFP humanized mutant strains;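 first replicate; 0 = DMSO median and -100 = no signal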
Active calls of the source: *; ? = inconclusive; nt = no result given; & = joins results of further samples.

SMILES	AF4-AF9 inh	Vif A3G	Ecoli rRNA inh	Ecoli rRNA inh OD600	Ecoli rRNA inh RFP	Beta cell apopt	RanGTP-Imp inh	Calb FLC	A1 inh	T cruzi inh
CCOC(=O)C1CCN(C(=S)Nc2cc(OC)c(OC)cc2C(=O)OC)CC1	-27	1%	-9	-5	-0.8	nt	-5.3	1	nt	49
Cc1cc(-n2nc(C)cc2C)n2nc(C)c(-c3ccccc3)c2n1	nt	8%	nt	nt	nt	-8	-10	41	0.6	14
COc1cccc(CN2CCNC(=O)C2CC(=O)NCc2cc(C(C)C)no2)c1 (stereo not given)	-2.0	7%	12	6	-0.6	2	-0.1	-8	0.3	-17
COCCNC(=S)NNC(=O)c1cc(-c2cccnc2)nc2ccccc12	0.1	nt	1	5	-0.2	0	0.8	31	-0.7	-18
O=C(OCC(=O)N(Cc1ccccc1)Cc1ccccc1)c1ccccc1O	0.2	-6%	-3	-19	-3.2	3	nt	nt	0.2	nt
CN(c1ccccc1)S(=O)(=O)c1nnc(NC(=O)c2ccco2)s1	-2.5	-1%	-2	6	-2.5	-1	4.1	12	0.3	-24
COc1ccc(NC(=O)C(c2cc3c(cc2[N+](=O)[O-])OCO3)N(C)Cc2ccccc2)cc1 (stereo not given)	nt	7%	nt	nt	nt	1	-0.3	5	-0.6	4
CSc1ccc(/C=C/c2ccc3cccc(O)c3n2)cc1	4.4	8%	-30*	-23*	-1.0*	16	2.2	3	-11	33
Cc1ccc(-c2nc3cc(NC(=O)C(C)C)ccc3o2)cc1	nt	7%	nt	nt	nt	-2	-0.8	11	-5.9	5
COc1ccc(S(=O)(=O)N2CCOCC2)c2ccccc12	-14	13%	11	1	2.5	-3	4.5	-6	0.0	-1
COc1cc(OC)cc(-c2cc3ccc(F)cc3cn2)c1	0.6	nt	-3	2	-4.4	4	nt	nt	-6.9	nt
O=c1cc(COc2ncnc3c(Cl)cc(Cl)cc23)nc2sccn12	-0.9	-16%	12	15	2.6	-2	3.1	-4	-0.3	4
O=C(NCCc1nnc2ccc(SCC(=O)N3CCCC3)nn12)c1ccccc1	1.5	nt	6	7	-1.3	-4	1.4	0	0.9	-20
O=C(Nc1ccccc1Cl)C1CC(=O)n2c(nc3ccccc32)N1 (stereo not given)	-2.3	-3%	16	14	-6.3	-3	-2.4	-4	2.2	-12
Cc1ccc(Sc2cc(C(=O)c3ccccc3C(=O)O)ccc2[N+](=O)[O-])cc1	2.0	-3%	-16	0	11	0	1.5	-2	0.5	-7
COc1ccc(C2=NN(S(C)(=O)=O)C(c3cccs3)C2)cc1 (stereo not given)	-4.5	nt	12	-6	0.5	-6	1.7	5	-6.1	15
CN(C)CCn1c(=O)n(-c2ccc(F)cc2)c(=O)c2c3c(sc21)CCCCC3	0.3	8%	9	-10	0.3	-4	-3.2	3	-0.1	16
COc1ccc(C(=O)NNS(=O)(=O)c2ccccc2)cc1OC	1.0	nt	9	9	0.3	-7	0.5	-3	-0.3	9
COc1ccccc1C(=O)NC(=O)COC(=O)Cn1[nH]c(=O)c2ccccc2c1=O	-7.2	-1%	10	12	-1.2	4	1.5	0	-0.8	0
CN(CC(=O)Nc1ccc(F)cc1)C(=O)Cc1ccsc1	2.8	nt	2	7	2.5	5	nt	nt	0.1	nt
O=C(NCCc1cccs1)C1CC(c2c(Cl)cccc2Cl)=NO1 (stereo not given)	-1.7	3%	-23	-24	7.7	-2	-0.5	4	1.8	12
Cc1ccc(O)c(NC(=O)C2=CC(c3cccs3)=NS(=O)(=O)N2C)c1	4.2	nt	-7	-18	-0.6	-6	0.8	-5	nt	3
CN1CCN(c2ccc([N+](=O)[O-])cc2NC(=O)c2ccccc2Cl)CC1	6.3	3%	0	9	0.4	-4	-0.8	-1	-0.4	-3
COCC(=O)NNC(=O)c1ccc(OC)cc1	-1.7	5%	13	13	-1.3	-2	-1.8	-6	-0.2	2
Cc1cccc2nc(CSc3nnc4ccccn34)cn12	nt	2%	nt	nt	nt	1	-3.3	-7	0.1	-12
CC(NC(=O)C1CCC(=O)N1Cc1ccc(F)cc1)c1ccc2c(c1)OCCO2 (stereo not given)	-11	12%	-16	-15	-2.2	0	-0.2	-2	0.2	10
O=C(NCc1ccccn1)Nc1cccc(NC(=O)NCc2ccccn2)c1	nt	-6%	nt	nt	nt	1	-2.7	6	0.0	-11
O=C(O)CCc1nc(-c2ccccc2Cl)no1	nt	-5%	nt	nt	nt	-3	0.7	15	-0.2	-16
COC(=O)c1cc(OC)c(OC)cc1NC(=S)N1CCCC1	-0.1	-1%	11	7	3.7	-1	?	-2	0.8	52
COc1nc(OC)nc(N2CCC(C(=O)NCc3ccco3)CC2)n1	nt	7%	nt	nt	nt	-5	-2.8	19	0.5	2
CCCC1(C(=O)OC)NC(c2ccc(OC)c(OC)c2)C2C(=O)N(c3ccc4c(c3)OCO4)C(=O)C21 (stereo not given)	nt	3%	nt	nt	nt	-1	?	-2	1.9	-1
O=C(/C=C/c1ccc([N+](=O)[O-])cc1)OCc1cnc(-c2ccccc2)o1	-0.9	-2%	-1	12	0.4	0	-0.3	22	0.3	-2
O=C(/C=C/c1cccc([N+](=O)[O-])c1)N1CC[C@@]2(O)CCCC[C@H]2C1	-2.4	21%	-6	-6	-2.0	-2	1.2	7	-0.4	-14
CC1COc2ccccc2N1C(=O)c1ccc(F)cc1 (stereo not given)	-1.8	-2%	3	-7	-0.2	-4	?	-3	0.6	-5
Nc1cc(=O)[nH]c(SCC(=O)Nc2cc([N+](=O)[O-])ccc2Cl)n1	-1.1	-2%	11	8	-0.2	-7	4.3	-29	-0.5	1
O=C1CCCc2ccccc2N1	-0.8	nt	4	0	-1.3	-9	-16	9	0.7	-6
Cc1cccc(NC2CCCCC2NS(=O)(=O)c2ccccc2)c1 (stereo not given)	9.9	-2%	-1	-22	0.8	nt	2.2	29	nt	20
O=C(COC(=O)CCSc1ccccc1)NCc1ccccc1Cl	nt	nt	nt	nt	nt	-2	0.7	-9	-0.3	-8
COc1cccc(CNC(=O)c2ccccc2-c2ccccc2C(=O)O)c1	2.3	nt	12	6	0.6	-2	4.3	1	0.3	-10
COCCNC(=O)Cn1ccc2cc(S(=O)(=O)N3CCCCCC3)ccc21	-2.3	nt	-2	5	-2.0	-8	2.0	-9	1.2	13

Ten successive records from above:
SMILES	AF4-AF9 inh	Vif A3G	Ecoli rRNA inh	Ecoli rRNA inh OD600	Ecoli rRNA inh RFP	Beta cell apopt	RanGTP-Imp inh	Calb FLC	A1 inh	T cruzi inh
CCOC(=O)C1CCN(C(=S)Nc2cc(OC)c(OC)cc2C(=O)OC)CC1	-27	1%	-9	-5	-0.8	nt	-5.3	1	nt	49
Cc1cc(-n2nc(C)cc2C)n2nc(C)c(-c3ccccc3)c2n1	nt	8%	nt	nt	nt	-8	-10	41	0.6	14
COc1cccc(CN2CCNC(=O)C2CC(=O)NCc2cc(C(C)C)no2)c1 (stereo not given)	-2.0	7%	12	6	-0.6	2	-0.1	-8	0.3	-17
COCCNC(=S)NNC(=O)c1cc(-c2cccnc2)nc2ccccc12	0.1	nt	1	5	-0.2	0	0.8	31	-0.7	-18
O=C(OCC(=O)N(Cc1ccccc1)Cc1ccccc1)c1ccccc1O	0.2	-6%	-3	-19	-3.2	3	nt	nt	0.2	nt
CN(c1ccccc1)S(=O)(=O)c1nnc(NC(=O)c2ccco2)s1	-2.5	-1%	-2	6	-2.5	-1	4.1	12	0.3	-24
COc1ccc(NC(=O)C(c2cc3c(cc2[N+](=O)[O-])OCO3)N(C)Cc2ccccc2)cc1 (stereo not given)	nt	7%	nt	nt	nt	1	-0.3	5	-0.6	4
CSc1ccc(/C=C/c2ccc3cccc(O)c3n2)cc1	4.4	8%	-30*	-23*	-1.0*	16	2.2	3	-11	33
Cc1ccc(-c2nc3cc(NC(=O)C(C)C)ccc3o2)cc1	nt	7%	nt	nt	nt	-2	-0.8	11	-5.9	5
COc1ccc(S(=O)(=O)N2CCOCC2)c2ccccc12	-14	13%	11	1	2.5	-3	4.5	-6	0.0	-1

The listing continues:
SMILES	AF4-AF9 inh	Vif A3G	Ecoli rRNA inh	Ecoli rRNA inh OD600	Ecoli rRNA inh RFP	Beta cell apopt	RanGTP-Imp inh	Calb FLC	A1 inh	T cruzi inh
CCc1cc(C(=O)OC)c(NC(=O)CC2Nc3cc(C)c(C)cc3NC2=O)s1 (stereo not given)	2.9	nt	14	12	0.1	1	-2.2	-4	-0.3	-25
O=C(CSc1nc2ccccc2c(=O)n1-c1ccc(F)cc1)Nc1ccc(Cl)c(S(=O)(=O)N2CCOCC2)c1	-14	-32%	7	-1	6.9	4	-0.3	0	1.2	32
Cc1ccc(S(=O)(=O)NCC(=O)N2CCOCCOCCOCC2)cc1	-1.0	-4%	3	2	-1.0	-3	2.4	2	0.4	-4
CCN(CC)CCCNC(=O)c1c(O)c2cc(F)cc3c2n(c1=O)C(C)CC3 (stereo not given)	5.6	-4%	-6	-17	5.5	-10	-1.2	-14	0.3	18
CN(C(=O)COC(=O)COc1ccccc1F)C1CCS(=O)(=O)C1 (stereo not given)	nt	-5%	nt	nt	nt	-4	-4.4	7	0.0	-6
COc1ccc2c(C)cc(SCC(=O)Nc3c(C)n(C)n(-c4ccccc4)c3=O)nc2c1	nt	-3%&-2%	nt	nt	nt	0	1.3	13	-0.2	16
O=C(Cn1nnc(-c2ccccc2)n1)OC1CCOC1=O (stereo not given)	nt	-3%	nt	nt	nt	-7	0.1	3	0.6	-2
O=C(O)c1cc(-c2ccc(Cl)c(Cl)c2)n(-c2ccc(F)cc2)n1	3.1	11%	-43	-57	-0.8	-1	-1.4	18	-0.2	0
COc1cccc(CN2CC(C(=O)NCCSc3nnnn3C)CCC2=O)c1 (stereo not given)	-1.2	-8%	12	5	-2.4	-2	4.4	2	-0.4	-16
O=C(NNC1=NCCCCC1)c1cccc([N+](=O)[O-])c1	-0.7	1%	14	8	0.6	-4	-1.1	3	0.4	-11
C#CCNC(=O)C1=C[C@@H](c2coc3ccccc3c2=O)[C@H](CCCO)[C@@H](OCC)O1	2.4	13%	6	11	-9.1	-2	4.8	0	0.6	0
COc1cccc(C(=O)N2CCC(O)(c3cccnc3)CC2)c1	-1.6	19%	3	3	0.2	-6	?	-9	-0.1	-8

Only part of the results is shown; rates above refer to the full screens.
